From PubChem
Cruzain Triton – cruzain (T. cruzi) inhibition with detergent. 200,000 tested, 0.43% active. P25779. purified cruzain, Z-FR-AMC fluorescence, 0.01% Triton. Potency, µM, for inactives: max response, negative = inhibition, actives largely listed as inhibitors; active = well fitted curve in the direction sought with a large enough effect; inconclusive = small, poorly fitted or top-dose-only effect, or another doubt; inactive = no such curve, though single readings can be large; an effect the other way counts as inactive or inconclusive;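 also: plate controls were neutral wells for no effect and buffer without enzyme for full effect; nearly all actives have a fitted effect of over 40% in size; top concentration of the series not given in the record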
Target sequence (P25779 123-467 limits assumed): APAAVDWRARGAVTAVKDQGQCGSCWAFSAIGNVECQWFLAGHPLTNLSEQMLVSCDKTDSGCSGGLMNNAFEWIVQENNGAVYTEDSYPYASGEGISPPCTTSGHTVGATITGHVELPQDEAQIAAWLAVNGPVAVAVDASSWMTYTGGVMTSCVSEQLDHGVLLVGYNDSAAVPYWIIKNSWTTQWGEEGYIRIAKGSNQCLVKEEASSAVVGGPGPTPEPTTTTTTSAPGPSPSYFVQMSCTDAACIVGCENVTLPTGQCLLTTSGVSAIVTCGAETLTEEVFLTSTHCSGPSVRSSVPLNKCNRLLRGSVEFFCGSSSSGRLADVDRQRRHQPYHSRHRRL
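Purified cruzain (1.5 nM final) was preincubated with compounds for 15 min at room temperature in 100 mM sodium acetate pH 5.5, 5 mM DTT, 0.01% Triton X-100. Reaction started with 2 uM Z-FR-AMC; AMC fluorescence change over 60 s gave activity.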
2A StopGo – lowers the luciferase signal of an FMDV 2A StopGo reporter; 410,000 tested, 1.2% active; human cells with a luciferase reporter of 2A StopGo recoding; control for the full effect not named in the record; AID 1159524; Potency, µM (series often up to 57.9 µM), without a hit: top-dose signal change, negative = less light; active = well fitted falling curve with a large enough effect; inconclusive = small, poorly fitted or top-dose-only effect; inactive = no such curve, though single readings can be large or run the other way; tested in HEK293T cells; also: % is scaled to controls: 0 for no effect and ±100 for the full control effect; nearly all actives have a fitted effect of over 45% in size; luciferase light after 4 h
Marburg entry inh – blocks Marburg virus binding to or entry into cells; 300,000 tested, 1.8% active; Marburg virus pseudotyped entry inhibition, cell reporter; control for the full effect not named in the record; about a third of the inactives were read at about 46 µM; Potency, µM (top dose mostly 37.8 µM), for the others: at the highest dose activity change, negative = inhibition, actives largely listed as inhibitors; active = well fitted inhibition curve with a large enough effect; inconclusive = small, poorly fitted or top-dose-only effect, or effect the other way; inactive = flat fitted curve, though single readings scatter; tested in HEK293 cells; about a fifth of its hits are not listed in these tables; also: % is scaled to controls: 0 for no effect and ±100 for the full control effect; luciferase read-out
Lassa entry inh – inhibitors of Lassa virus binding or cell entry; Lassa virus pseudotype entry inhibition, cell reporter; control for the full effect not named in the record; Potency, µM (highest dose often 37.9 µM), for inactives: at the highest dose activity change, negative = inhibition, hits mostly inhibitors; 300,000 tested, 1.2% active; AID 540256; active means well fitted inhibition curve with a large enough effect; inconclusive means small, poorly fitted or top-dose-only effect, or effect the other way; inactive means flat fitted curve, though single readings scatter; tested in HEK293 cells; also: % is scaled to controls: 0 for no effect and ±100 for the full control effect; nearly all actives have a fitted effect of over 50% in size; luciferase read-out
Cruzain inh noDet – inhibitors of Trypanosoma cruzi cruzain without detergent; P25779; purified cruzain, Z-FR-AMC fluorescence, no detergent; Potency, µM, for the others: max response, negative = inhibition, most hits filed as inhibitors; 200,000 tested, 2.3% active; active = well fitted curve in the direction sought with a large enough effect; inconclusive = small, poorly fitted or top-dose-only effect, or another doubt; inactive = no such curve, though single readings can be large; an effect the other way counts as inactive or inconclusive;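 also: plate controls were enzyme without inhibitor for no effect and buffer without enzyme for full effect; nearly all actives have a fitted effect of over 40% in size; top concentration of the series not given in the record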
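Detergent-free condition (0.00005% Triton X-100) in acetate buffer pH 5.5 with DTT. 1.5 nM enzyme and compound were pre-mixed 15 min, then 2 uM Z-FR-AMC substrate added; reaction progress from fluorescence change between first and third reads (60 s).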
SARS PLP yeast – inhibitors of SARS-CoV papain-like protease in yeast; Potency, µM (top dose mostly 32.9 µM), without a hit: at the top dose activity, positive = growth rescue; S. cerevisiae expressing SARS-CoV PLpro, growth rescue; control for the full effect not named in the record; 330,000 tested, 0.19% active; also: 0% is about no effect; nearly all actives have a fitted effect of over 55% in size; growth read by luminescence after 48 h
RE007 growth inh – less growth of the S. pombe RE007 Vpr strain | AID 651644 | 360,000 tested, 0.21% active | Potency, µM (series often up to 92.2 µM), for inactives: at the top dose activity change, negative = less growth | S. pombe RE007 Vpr strain, BacTiter-Glo ATP luminescence, 24 h; control for the full effect not named in the record; active = well fitted falling curve with a large enough effect; inconclusive = small, poorly fitted or top-dose-only effect; inactive = no such curve, though single readings can be large or run the other way;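 also: % is scaled to controls: 0 for no effect and ±100 for the full control effect; nearly all actives have a fitted effect of over 50% in size; the assay follows cell death caused by Vpr and the record does not say whether a fall means rescue or toxicity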
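Fission yeast RE007 carrying one integrated HIV-1 vpr copy, seeded at OD 0.01 in PMG+AL medium with 23 nL pinned compound. Grown 24 h at 30 degrees; viability read by BacTiter-Glo luminescence after 5 min.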
NS1 function inh – inhibitors of influenza NS1 protein function; Potency, µM (highest dose often 46.1 µM), inactives show at the top dose activity, positive = more growth; 270,000 tested, 0.4% active; S. cerevisiae slowed by influenza A NS1, growth recovery by OD600; also: actives are rising curves; nearly all actives have a fitted effect of over 50% in size
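A cell-based growth assay was used: compounds that relieve NS1-induced slow growth of budding yeast raise OD600. Assay medium was yeast nitrogen base with ammonium sulphate and -URA supplement, pH 6.0, with 2% galactose.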
Starred values were filed as active, the others as inactive; ? = inconclusive; / = not tested or not shown; & = joins results of further samples; ! = a repeat was not active; [ ] = dose if it differs, or a comment. Unless noted, calls follow the shape of the dose curve; as a rule, active means well fitted rising curve with a large enough effect; inconclusive means small, poorly fitted or top-dose-only effect; inactive means no such curve, though single readings can be large or run the other way. Potency is read from the fitted curve at half-maximal effect.

SMILES	Cruzain Triton	2A StopGo	Marburg entry inh	Lassa entry inh	Cruzain inh noDet	SARS PLP yeast	RE007 growth inh	NS1 function inh
FC(F)(F)c1ccc(NC(=S)NC2CCCCC2)cc1	/	44%[activator]	?	?	/	3%	-3%	/
COc1ccc(NC(=O)CC2C(=O)N(c3ccc(Cl)cc3)C(=S)N2NC(=O)c2cccc(F)c2)cc1 (stereo not drawn)	-1.0%	19%	?	?	-27%	18%	1%	-9%
COc1cccc(/C=N/NC(=O)c2ccccc2)c1OS(=O)(=O)c1ccccc1	-2.1%	14%	3%	-15%	-4%	2%	-4%	7%
O=C(Cc1ccccc1)N1CCNCC1	/	8%	-7%[46.1 µM]	8%[46.1 µM]	/	0%	2%	/
O=C1NC(=S)N/C1=C/c1cc([N+](=O)[O-])ccc1O	-2.6%	-13%	6%	5%	4%	7%	22%	5%
Cc1cc(C(=O)N/N=C/c2ccc([N+](=O)[O-])s2)c2ccccc2n1	/	-16%	/	?	/	-5%	2%	-2%
CSc1ccccc1NC(=O)c1cnc2sc(C)cn2c1=O	/	-10%	-21%	?	/	/	1%	/
Cc1ccc(O)c(/C=N/NC(=O)c2[nH]ncc2Br)c1	-5.5%	41%[activator]	?	?	4%	-2%	78%	3%
CCOc1ccc(NC(=O)COc2ccc3c(c2)OCO3)cc1	/	-1%	7%[46.1 µM]	17%	/	-5%	6%	-11%
Cc1cccc(C(=O)NCC(=O)OC(C)C(=O)Nc2ccc(Cl)cn2)c1 (stereo not drawn)	/	-2%	12%	13%	/	/	6%	/
Cc1c(C(N)=O)sc2ncn(CC(=O)NCCc3ccccc3)c(=O)c12	/	-14%	-2%	?	/	0%	2%	2%
CCOC(=O)Cc1csc(NC(=O)CCSc2ccccc2)n1	/	-11%	-26%[46.1 µM]	-7%[46.1 µM]	/	-1%	-10%	/
CN1CCN(C(=O)c2cccn(Cc3cccc(Cl)c3)c2=O)CC1	/	-16%	/	/	/	-2%	7%	0%
C[n+]1cccc(C(=O)N/N=C/c2ccc3c(c2)OCO3)c1	/	9%	-1%[46.1 µM]	0%[46.1 µM]	/	0%	-5%	-4%
CCCC(C)NC(=O)C1CC(=O)N(CCc2ccc(F)cc2)C1 (stereo not drawn)	/	5%	/	/	/	-7%	2%	3%
COC(=O)c1cc(=O)n(Cc2cccs2)c(=Nc2ccc(F)cc2)s1	/	?	/	/	/	0%	-2%	-38%
O=C(COC(=O)/C=C/c1ccc(OC(F)F)cc1)NC1CCCCC1	/	6%	-9%	1%	/	-6%	10%	/
CCOC(=O)C1=C(CS(=O)(=O)c2ccc(F)cc2)NC(=O)NC1c1ccc(O)c(O)c1 (stereo not drawn)	/	5%	/	/	/	?	4%	7%
COc1ccc(NC(=O)N2CCN(S(C)(=O)=O)CC2)cc1	/	-3%	2%[14.2 µM]	1%	/	-1%	2%	6%
Cc1nc2ccc(S(=O)(=O)NCC(=O)N3CCC(N4CCCCC4)CC3)cc2s1	3.4%	-6%	-17%	-9%	-4%	14%	1%	-3%
Cc1ccnc(NC(=O)c2ccco2)n1	/	11%	?	22%[46.1 µM]	/	1%	7%	1%
COc1ccc(CC(=O)NCC(=O)N/N=C/c2cc(Br)ccc2OC)cc1	/	-28%	?	0%[46.1 µM]	/	3%	3%	-7%
COc1ccccc1C1C(C(=O)c2ccc(C)o2)=C(O)C(=O)N1c1cc(C)on1 (stereo not drawn)	/	2%	-3%[46.1 µM]	0%[46.1 µM]	/	-6%	-2%	1%
C/C(=N\NC(=O)c1ccc(CSc2nncn2C)cc1)c1ccc(C#N)cc1	-3.2%	-10%	14%	-9%	-1%	8%	-19%	-12%
CCCCN(C(=O)CSc1nnc(-c2ccc(Cl)cc2)o1)c1c(N)n(CC(C)C)c(=O)[nH]c1=O	/	-27%	7%	?	/	-2%	6%	/
O=C(CCCN1C(=O)/C(=C/c2ccccc2Cl)SC1=S)NNC(=O)c1ccncc1	/	0%	?	?	/	-1%	-1%	4%
Cc1ccsc1CNC1C2CC3CC(C2)CC1C3 (stereo not drawn)	/	-27%	?	-25%	/	1%	-12%	1%
C(=N\n1cnnc1)/C1CCCCC1	-0.4%	-2%	11%	1%	-2%	-2%	4%	2%
COc1cccc(C(C(=O)NC(C)(C)C)N(Cc2ccc(F)cc2)C(=O)CCC(=O)Nc2cc(C)on2)c1OC (stereo not drawn)	/	-23%	-1%[46.1 µM]	-21%	/	12%	0%	2%
O=C(O)c1ccc(NS(=O)(=O)c2cccc(C(=O)Nc3ccc([N+](=O)[O-])cc3)c2)cc1	/	5%	/	/	/	5%	-7%	?
COC(=O)c1cc2ccccc2c([N+](=O)[O-])c1O	/	-5%	-1%[46.1 µM]	7%[46.1 µM]	/	/	-27%	/
CCC1(CC)C(=O)N(C)C(=O)NC1=Nc1ccccc1	2.5%	-17%	0%	1%	2%	1%	13%	-1%
COCc1c(C(=O)Nc2cccc(S(=O)(=O)N3CCCCC3)c2)oc2ccccc12	/	-29%	?	?	/	-20%	-3%	/
Cn1c(=O)[nH]c(=O)c2c1nc(N1CCCCCC1)n2CCCSc1nc2ccccc2o1	-7.2%	?	?	?	28%	0%	-4%	-77%
CC(=O)N1CCN(S(=O)(=O)c2ccc(S(=O)(=O)N3CCCC(C)C3)cc2)CC1 (stereo not drawn)	/	6%	27%[46.1 µM]	/	/	1%	18%	2%
Cc1cc(Br)ccc1-n1[nH]c(C)c(C=Nc2cccc3nsnc23)c1=O	/	-14%	-9%[14.2 µM]	-23%	/	-9%	?	/
O=C(CCCO)N/N=C/c1ccccc1[N+](=O)[O-]	-2.6%	38%[activator]	?	22%	0%	16%	-10%	7%
Cc1ccc(-c2ccc(CCC(=O)O)n2-c2ccc(O)cc2)cc1	-7.5%	-10%	2%	5%	-4%	-5%	-6%	29%
COc1ccc(CNC(=O)c2cnn3c(C(F)F)cc(C)nc23)cc1	-2.0%	3%	1%	-40%	-16%	25%	-10%	-2%
NS(=O)(=O)c1ccc(CNC(=O)c2cc(=O)c3cc(Cl)ccc3o2)cc1	/	-25%	/	/	/	1%	-5%	5%
CC(C)Cc1nc2n[nH]c(N)c2c2c1CCCC2	4.6%	-11%	2%	7%	-8%	11%	8%	-9%
CC(C)C[C@H](NC(=O)c1[nH]cnc1C(=O)Nc1ccc(CNC(=O)OC(C)(C)C)cc1)C(=O)OCc1ccccc1	/	?	/	/	/	0%	-9%	-3%
O=C(O)C(F)=C(c1ccccc1)c1ccccc1	/	-5%	?	26%[46.1 µM]	/	/	5%	/
Cc1ccc(/C(N)=N/OC(=O)c2ccc3c(c2)OCO3)cc1	-1.7%	-1%	?	?	5%	-61%	-19%	-45%
COCCCN=C(c1ccco1)n1c(=S)nc(-c2ccco2)n(CCCOC)c1=S	-17%	/	1%&3%	1%	-10%	-24%	-12%	-32%
COCCn1c(Cc2ccccc2)nnc1SCC(=O)NC1CCCCC1	/	5%	?	1%[46.1 µM]	/	0%	8%	9%
CC/C(=N\NC(=O)c1csc(C)c1C)c1cccs1	0.0%	18%	?	?	-4%	-19%	-15%	-25%
Cc1nnc(SCC(=O)Nc2nc(C(C)(C)C)cs2)s1	1.3%	?	-3%	-29%	?	-7%	-6%	2%

Complete entries, looked up by structure. Order of values: Cruzain Triton	2A StopGo	Marburg entry inh	Lassa entry inh	Cruzain inh noDet	SARS PLP yeast	RE007 growth inh	NS1 function inh
COc1cccc(C(C(=O)NC(C)(C)C)N(Cc2ccc(F)cc2)C(=O)CCC(=O)Nc2cc(C)on2)c1OC (stereo not drawn) is listed with /	-23%	-1%[46.1 µM]	-21%	/	12%	0%	2%
COc1ccc(NC(=O)CC2C(=O)N(c3ccc(Cl)cc3)C(=S)N2NC(=O)c2cccc(F)c2)cc1 (stereo not drawn) is listed with -1.0%	19%	?	?	-27%	18%	1%	-9%

Remaining list, next part:
SMILES	Cruzain Triton	2A StopGo	Marburg entry inh	Lassa entry inh	Cruzain inh noDet	SARS PLP yeast	RE007 growth inh	NS1 function inh
CCOC(=O)C1=C(C)NC(=O)NC1	8.2%	-15%	3%	0%	2%	2%	-12%	-5%
CCCCn1c(CCC(=O)O)nc2cc(S(=O)(=O)N(C)C)ccc21	/	-4%	11%	-1%	/	1%	-2%	/
CCOc1ccccc1NC(=O)CN1C(=O)CSC(C)C1=O (stereo not drawn)	/	1%	?	17%	/	-5%	13%	/
Cc1ccc(C(=O)N2CCSCC2)cc1	3.2%	-6%	-19%	-4%	0%	5%	-9%	-1%
COc1ccc(N2CCN(C(c3cc(OC)ccc3OC)c3nnnn3Cc3ccco3)CC2)cc1 (stereo not drawn)	1.9%	22%	10µM*!	?	4%	-7%	1%	-9%
N/C(=N\OC(=O)COc1ccc(Cl)cc1Cl)c1ccncc1	/	16%	/	/	/	-3%	-8%	-52%
COc1ccc(CN2C(=O)NC3(CCCCC3)C2=O)cc1F	0.8%	-11%	-1%	0%	1%	-4%	-2%	-10%
O=C(NCC1CCCCC1)c1cc(S(=O)(=O)N2CCOCC2)ccc1F	/	4%	-9%	-1%	/	2%	1%	/
O=C(CC(C(=O)O)c1ccc(F)cc1)c1ccc(Cl)cc1 (stereo not drawn)	/	-8%	-12%[46.1 µM]	14%[46.1 µM]	/	1%	-11%	-2%
Cc1ccc(C2OCC(C)([N+](=O)[O-])CO2)cc1 (stereo not drawn)	/	-2%	-6%[46.1 µM]	-1%[46.1 µM]	/	/	4%	/
Cc1cc(C)nc(Sc2ncnc(N)c2[N+](=O)[O-])n1	/	13µM*	?	-13%	/	0%	-14%	-2%
CCOC(=O)c1c(NC(=O)CSc2nnc(CNc3ccc(F)cc3)o2)sc(C)c1C	-9.4%	-16%	?	-12%	15%	-2%	24%	-13%
CCCCC1C2C(=O)N(c3ccc(C)cc3)C(=O)C2ON1c1ccccc1 (stereo not drawn)	/	12%	/	/	/	-1%	7%	6%
COC(=O)c1ccc(-c2noc(CN(C)CC3CCCCO3)n2)cc1 (stereo not drawn)	/	14%	?	-10%[46.1 µM]	/	-2%	-12%	-4%
